Screening data as filed in PubChem BioAssay.
D2 agonist – Beta-Arrestin HTS for Positive Allosteric Modulators of the Human D2 Dopamine Receptor: Agonists; D(2) dopamine receptor (Homo sapiens), P14416; DiscoveRx PathHunter D2 beta-arrestin, luminescence, 90 min; 100% = 57 uM dopamine signal; activation, % (test concentration not listed); 360,000 tested, 0.084% active; in the data active = activation above about 40%; inconclusive = about 15% to 40%; inactive = below about 15%; note: compound concentration not given in the record; the text of the record calls up to 30% inactive
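DiscoveRx PathHunter D2 beta-arrestin cells (2,100/well) attached overnight, then compound-stimulated 90 min at 37 C in HBSS/10 mM HEPES/0.1% Tween-20 buffer; beta-galactosidase complementation read by luminescence after 1 h at ambient temperature. Dopamine 57 uM final (EC100) as control.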
TRPV1 potentiator – HTS Assay for Compounds that Act as Potentiators of the Vanilloid Receptor 1. Transient receptor potential cation channel subfamily V member 1 (Homo sapiens), Q8NER1. TRPV1-expressing cells, Fluo-8 calcium influx, capsaicin EC20 potentiation; host cell line not named in the record; control for the full effect not named in the record. potentiation, % at 8.33 µM. 320,000 tested, 0.02% active; active means potentiation above 80%; inconclusive means 30% to 80%; inactive means below 30%; note: 0% is about no effect
Target sequence (Q8NER1 whole entry, looked up): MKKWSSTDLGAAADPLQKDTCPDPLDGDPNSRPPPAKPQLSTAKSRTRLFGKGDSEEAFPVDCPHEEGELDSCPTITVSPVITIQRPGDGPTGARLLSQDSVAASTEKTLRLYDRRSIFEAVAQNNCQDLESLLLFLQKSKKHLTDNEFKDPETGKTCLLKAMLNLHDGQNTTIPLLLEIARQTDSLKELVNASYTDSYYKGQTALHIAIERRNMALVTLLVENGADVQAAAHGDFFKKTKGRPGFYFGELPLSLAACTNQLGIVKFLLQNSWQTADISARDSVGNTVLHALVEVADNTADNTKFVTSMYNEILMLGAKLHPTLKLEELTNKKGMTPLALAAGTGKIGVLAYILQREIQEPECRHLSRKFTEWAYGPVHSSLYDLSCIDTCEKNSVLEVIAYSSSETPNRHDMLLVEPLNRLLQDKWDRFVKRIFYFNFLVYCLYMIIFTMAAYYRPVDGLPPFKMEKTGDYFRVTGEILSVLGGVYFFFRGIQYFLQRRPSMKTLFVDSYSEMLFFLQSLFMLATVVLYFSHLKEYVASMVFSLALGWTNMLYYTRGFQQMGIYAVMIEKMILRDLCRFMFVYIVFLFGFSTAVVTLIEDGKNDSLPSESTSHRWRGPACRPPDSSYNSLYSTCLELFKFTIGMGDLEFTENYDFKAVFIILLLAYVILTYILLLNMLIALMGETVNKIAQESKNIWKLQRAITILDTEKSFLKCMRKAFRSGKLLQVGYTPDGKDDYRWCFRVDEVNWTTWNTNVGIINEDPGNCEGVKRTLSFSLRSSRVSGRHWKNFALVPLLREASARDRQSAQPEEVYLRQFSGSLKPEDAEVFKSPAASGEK
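Fluo-8 calcium influx in TRPV1-expressing cells, kinetic read (ex 480/em 520 nm). Compound added and read 3 min for agonist activity, followed by capsaicin at EC20 final and 2 min further read for enhancement.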
CtBP-E1A blk – qHTS Assay for Inhibitors of the CtBP/E1A Interaction. AlphaScreen GST-E1A/His-CtBP binding, 1536-well; active compounds read low; control for the full effect not named in the record. activity change, % (concentration not given with the values). 340,000 tested, 0.49% active. AID 651724, 2012; in the data active means activity change below about -65%; inconclusive means about -30% to -65%; inactive means above about -30%; note: % is set by controls: 0 for no effect and ±100 for the full control effect
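AlphaScreen with 125 nM GST-E1A and 125 nM His-CtBP (5X stocks) in Tris pH 8.0, 300 mM NaCl, BSA, Tween 20, TCEP. Compounds preincubated 2 h at 37 deg C, then glutathione donor/nickel acceptor beads added for 1 h at 37 deg C in dark.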
PINK1 expr mod – A Quantitative High throughput Screen to Identify Chemical Modulators of PINK1 Expression | PINK1 immunofluorescence, high-content cytometry, 24 h | Potency, µM (top dose mostly 76.6 µM), for inactives: top-dose activation (PINK1 increase), hits mostly activators | 410,000 tested, 0.2% active; active = well fitted activation curve with a large enough effect; inconclusive = small, poorly fitted or top-dose-only effect; inactive = flat fitted curve, though single readings scatter; cell line not stated here;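 note: potency is the fitted concentration of half-maximal effect; % of control where 0% means no effect; nearly all actives have a fitted effect of over 65% in size; a mitochondrial uncoupler was the plate control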
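Stable cell line treated 24 h with compounds at 5 concentrations (CCCP controls), then fixed and immunostained for PINK1 plus nuclear and cell stains; PINK1 immunofluorescence quantified by laser-scanning microplate cytometry.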
Sfp inh – qHTS Assay for Inhibitors of Bacillus subtilis Sfp phosphopantetheinyl transferase (PPTase); 4'-phosphopantetheinyl transferase ffp (Bacillus subtilis), Q9F4F7; Biochemical Sfp PPTase activity, qHTS; Potency, µM, for the others: max response, negative = inhibition, actives largely listed as inhibitors; 310,000 tested, 3.5% active; active = well fitted inhibition curve with a large enough effect; inconclusive = small, poorly fitted or top-dose-only effect, or another doubt; inactive = no such curve, though single readings can be large or run the other way;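 note: the enzyme is Sfp with the accession as filed and its product quenches rhodamine fluorescence; potency is the fitted concentration of half-maximal effect; 0% = enzyme reaction without inhibitor and -100% = no enzyme wells; top concentration of the series not given in the record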
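Sfp 15 nM + cpd, 15 min RT; start w/ rhodamine-CoA 5 uM, BHQ-2-YbbR 12.5 uM (final); 50 mM Hepes pH 7.6, 10 mM MgCl2, 0.01% NP-40, 0.01% BSA; read 525/598 nm at 0 and 30 min.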
Six1-Eya2 inh – qHTS Assay for Inhibitors of the Six1/Eya2 Interaction; AID 651725, 2012; AlphaScreen GST-Six1/His-Eya2 binding, biochemical; active compounds read low; control for the full effect not named in the record; activity change, % (test concentration not listed); 360,000 tested, 0.56% active; Homeobox protein SIX1 (Homo sapiens) + Protein phosphatase EYA2 (Homo sapiens), …; in the data active = activity change below about -65%; inconclusive = about -30% to -65%; inactive = above about -30%; note: % is set by controls: 0 for no effect and ±100 for the full control effect
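Compounds are tested against tagged Six1 and Eya2 proteins bridged by glutathione donor and nickel acceptor beads; after a one-hour incubation at 37 °C without light, AlphaScreen emission is recorded.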
D2 potentiator – Beta-Arrestin HTS for Positive Allosteric Modulators of the Human D2 Dopamine Receptor: Potentiators. D(2) dopamine receptor (Homo sapiens), P14416. AID 624464, 2012. potentiation, % (concentration not given with the values). DiscoveRx D2 beta-arrestin cells, luminescence, 90 min; 100% = 57 uM dopamine signal. 360,000 tested, 0.23% active; active = potentiation of 50% or more; inconclusive = 30% to 50%; inactive = 30% or less;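 note: compound concentration not given in the record; tested on top of an EC20 dose of dopamine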
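PathHunter beta-arrestin assay in DiscoveRx D2 cells. Compounds were added with an EC20 of dopamine (50 nM final) for 90 min at 37 deg C. Luminescence was read 1 h after detection reagent, with 57 uM dopamine as the EC100 control.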
Numbers without * were called inactive; ? = inconclusive; . = not tested or not shown; & = joins results of further samples; [ ] = dose if it differs, or a comment.

SMILES	D2 agonist	TRPV1 potentiator	CtBP-E1A blk	PINK1 expr mod	Sfp inh	Six1-Eya2 inh	D2 potentiator
O=C(N/N=C/c1ccc(N2CCOCC2)cc1)c1ccccc1OCCOc1ccccc1	1.4	4	.	2.5%	-3%	-1	3
C/C(CC(=O)Nc1ccccc1-c1ccccc1)=N\NC(=O)COc1ccc(C)cc1Br	-1.4	3	-8	1.7%	1%	4	-13
COc1cc(NC(=O)c2ccc(NC3=NC4CS(=O)(=O)CC4S3)cc2)cc(OC)c1 (stereo not given)	-6.2	9	0	4.4%	6%	3	-6
O=C(CCn1ccc([N+](=O)[O-])n1)NC1CCCCCC1	0.8	-8	-2	1.1%	13%	9	-6
CCCSc1nnc(CSc2nc3nc(C)cc(C)n3n2)o1	-3.2	2	9	.	4%	3	9
O=C(COC(=O)CCC(=O)c1ccc(F)cc1)Nc1ccccc1	-6.0	-5	0	-1.8%	17%	12	-2
Cc1cc(C)nc(N/C(=N\S(=O)(=O)Cc2ccccc2)Nc2cccc(Cl)c2C)n1	-1.1	2	-7	14%	6%	3	-3
COCCOC(=O)C1=C(C)NC(=O)NC1c1cccs1 (stereo not given)	-3.8	?	1	0.8%	14%	2	-17
C=CCn1cnnc1SCC(=O)N(C1CCCCC1)C1CCS(=O)(=O)C1 (stereo not given)	-3.2	.	6	0.2%	.	-4	-10
CCOC(=O)CCSc1n[nH]c(=S)s1	-4.0	-6	3	0.8%	32µM*	7	-13
CCn1c(SCC(=O)NC2CCCC2)nnc1-c1ccco1	-0.8	1	1	0.0%	9%	7	-1
CC1CCCCC1NC(=O)Cn1[nH]c(=O)c2ccccc2c1=O (stereo not given)	-2.9	25	2	-0.2%	21%	6	-2
Cc1ccc2nc(NC(=O)CN3C(=O)C4CC=CCC4C3=O)sc2c1 (stereo not given)	-3.7	11	-5	-0.8%	7%	-2	-1
Cc1cc(-c2ccccc2)nc2c(Br)c(=O)[nH]n12	-5.4	8	.	0.7%	5%	4	-9
O=C(Nc1cccc(S(=O)(=O)N2CCCCC2)c1)c1ccc2ccccc2n1	-4.8	8	-16	1.8%	9%	-9	-7
C[C@@H]1CN([C@H](C)CO)C(=O)CCCn2cc(nn2)CO[C@H]1CN(C)S(=O)(=O)c1cccc(C#N)c1	-1.4	.	3	-0.5%	.	10	-5
CCOc1ccc(N(CC(=O)Nc2ccccc2F)S(=O)(=O)c2c(C)[nH]c(=O)[nH]c2=O)cc1	-2.6	4	?	-0.2%	10%	?	-10
CS(=O)(=O)c1ccc2nc(NC(NC(=O)c3ccco3)(C(F)(F)F)C(F)(F)F)sc2c1	0.7	-6	2	1.1%[38.3 µM]	20%	4	-8
COc1ccccc1OCCC(=O)OCC(=O)NC(=O)NC(C)(C)C	1.4	15	2	0.9%	7%	-3	6
CC(=O)c1c(C)[nH]c(C(=O)Nc2ccc(Cl)cc2F)c1C	-1.1	-12	-1	?	11%	6	-13
COc1ccc(S(=O)(=O)Nc2c(C)n(C)n(-c3ccccc3)c2=O)cc1Br	-2.1	12	.	-0.2%&2.3%	14%	0	-4
CCOc1ccc(NC(=O)N(CCN(C)C)C(C)c2ccncc2)cc1 (stereo not given)	-4.6	.	2	5.2%	3%	8	-10
COCCC(=O)N1CCC(Oc2ccc(C(=O)NC3CCCCC3)cc2)CC1	-4.9	1	4	3.3%	-1%	0	-4
CCN(CC)CCCNC(=O)c1cc2c(-c3cccc(OC)c3)nn(C)c2s1	0.1	11	.	1.6%	-1%	?	-49
COc1ccc(-c2nnnn2C)cc1S(=O)(=O)NCCc1ccccc1	1.2	6	9	0.2%[38.3 µM]	4%	-2	10
Cc1c(NC(=S)N/N=C/C=C/c2ccc([N+](=O)[O-])cc2)c(=O)n(-c2ccccc2)n1C	-3.4	5	31	4.7%	21%	13	-18
O=C(NCc1ccc(F)cc1)c1cccc2c1C(=O)N(Cc1cccnc1)C2	-5.8	-1	8	0.0%	-3%	0	0
CCOc1ccc(NC(=O)c2cccc(S(=O)(=O)NCc3cccnc3)c2)cc1	-0.9	.	0	1.8%	.	0	-2
CCCCn1c(N)c(N(CC(C)C)C(=O)CC2OC(=O)c3ccccc32)c(=O)[nH]c1=O (stereo not given)	-1.6	-5	-3	-2.1%	.	7	-7
CCCOc1nc(N)c(C#N)c(-c2ccccc2F)c1C#N	-4.3	-11	1	1.5%	11%	24	3
Cc1[nH]c2ccccc2c1CCO	0.1	9	-1	-0.3%	-2%	-4	-16
Cc1ccccc1S(=O)(=O)Nc1ncnc2ccccc12	-0.2	11	-1	1.7%	21%	-4	4
ClCc1ncc(-c2ccc(Cl)cc2)o1	0.5	-9	11	4.4%	15%	-7	1
CC(=O)c1ccc(-c2ccc(C(=O)Nc3nc(C)c(C(C)=O)s3)o2)cc1	1.9	-3	5	-1.6%	.	0	0
CCN(CC)CCNC(=O)c1ccc2c(=O)n(C3CCCC3)c(=S)[nH]c2c1	-2.6	-5	-20	-31%[38.3 µM]	-15%	-13	4
CC(=O)c1sc(NC(=O)CCS(=O)(=O)c2ccc(Cl)cc2)nc1C	-8.0	-26	1	1.0%	.	5	-5
CCCCCN(C(=O)NC(=O)Nc1nncs1)S(C)(=O)=O	-2.2	-4	5	.	-8%	1	4
COc1ccc(NS(=O)(=O)c2cccc(C(=O)NN=Cc3ccc(OC)cc3OC)c2)cc1	1.0	.	-9	2.6%	.	-11	5
C[C@H]1CN([C@@H](C)CO)S(=O)(=O)c2ccc(Br)cc2O[C@H]1CN(C)C(=O)c1cnccn1	-12	.	1	1.0%	.	-2	0
CC(NC(=O)Nc1ccc(Cl)cc1)c1ccc2c(c1)OCO2 (stereo not given)	-3.3	-9	-21	1.6%	-6%	-20	-17
Cc1cccc(-c2noc(-c3ccc(Cl)cc3[N+](=O)[O-])n2)c1	13	4	-21	2.8%	2%	?	?
O=C(NC(=S)NN1CCOCC1)c1cc(Br)ccc1Cl	-7.0	.	-3	-2.7%	.	-1	-6
COc1cccc(CNC(=O)CN2c3cccc4cccc(c34)S2(=O)=O)c1	8.3	1	1	3.7%	.	-5	17
O=C(NCc1cccnc1)Nc1ccc(Br)cc1Cl	0.4	3	3	-0.3%	2%	0	-29
Cc1ccc(NC(=O)CNCc2cccs2)cc1Br	0.4	-6	-4	7.6%	-18%	-1	-16
COCCOC(=O)C1=C(C)NC(C)=C(C(=O)OCCOC)C1/C=C/c1ccccc1OC	4.9	-4	-1	1.0%	4%	-7	-5
Cc1c(S(=O)(=O)NC(C)c2ccccc2)c(=O)n(C)c(=O)n1C (stereo not given)	-3.6	?	-12	1.4%	10%	-6	-11
CC(=O)Nc1ccc(NC(=O)CCOc2cc(C)ccc2C)cc1	-3.8	8	-3	8.5%	8%	14	-8
CCOC(=O)c1sc(NC(=O)CC(C)c2ccccc2)nc1C (stereo not given)	-2.4	-14	0	4.5%	17%	6	-3
O=C(Nc1ccccc1C(=O)NCc1ccccc1)c1ccccc1	0.0	-7	6	-0.7%[38.3 µM]	-16%	5	-6
COc1ccc(-c2csc(NCc3ccco3)n2)cc1	-5.7	21	-6	0.7%	-10%	-14	-9
CCN(CC)CCNC(=O)C1CCN(S(=O)(=O)N2CCCCC2)CC1	0.2	-3	6	2.0%[38.3 µM]	10%	1	-1
Cc1ccc(OC(C)C(=O)N2CCN(c3ccccn3)CC2)cc1 (stereo not given)	-3.1	.	0	-0.6%	.	2	-5
CCCCC(=O)N(CCOC)c1nnc(-c2ccc(OC)cc2)s1	-3.2	-8	13	6.8%	21%	5	-3
CCCC(C)C(=O)Nc1nnc(C)s1 (stereo not given)	-3.8	0	-3	0.9%[38.3 µM]	1%	2	-3
COc1ccc(C)cc1NC(=O)C(OC(=O)CNC(=O)c1ccc(Oc2ccccc2)cc1)c1ccccc1 (stereo not given)	-6.7	1	.	-0.6%	-2%	-1	-7
Cc1cc(-c2ccc(C)c(S(=O)(=O)NCCCN3CCN(c4ccccc4F)CC3)c2)on1	11	17	.	-0.6%	-3%	-5	-8
COc1ccc(-c2cc(C(=O)Nc3ccccc3)on2)cc1	-4.2	-4	15	4.4%	16%	-5	-3
Cc1ccnc(NS(=O)(=O)c2ccc(NC(=O)C3CCCO3)cc2)n1 (stereo not given)	1.4	-4	0	0.2%[38.3 µM]	12%	6	2
C=CCNC(=O)N1CCC(n2nccc2NC(=O)CCc2ccccc2)CC1	1.1	0	2	-0.6%	2%	2	-6

Other records follow:
SMILES	D2 agonist	TRPV1 potentiator	CtBP-E1A blk	PINK1 expr mod	Sfp inh	Six1-Eya2 inh	D2 potentiator
COc1ccc(CNCc2ccc(C(F)(F)F)cc2)cc1OC	-3.3	-1	-10	-1.1%	-4%	1	-28
COc1ccc(Br)cc1CN1CCN(S(=O)(=O)Cc2ccccc2)CC1	-2.7	-1	-4	9.7%	-12%	5	-17
CCc1nc(NCC2CCCO2)c(C#N)c2c1COC(C)(C)C2 (stereo not given)	-1.6	-3	-3	0.0%	15%	-1	-3
C1CCc2c(nnc3c2-c2nonc2CC3)C1	-1.3	1	6	.	-4%	5	-12
N#CCc1c(C#N)c(N)nc(N2CCN(Cc3ccc4c(c3)OCO4)CC2)c1C#N	-1.4	-7	-18	0.6%	-15%	-8	-28
COC(=O)/C(=N\Nc1ccccc1)Sc1nnc(-c2ccc(OC)cc2)n1C	0.2	17	-4	-0.2%	-14%	7	-2

Compound profiles, as listed above. Screens in order: D2 agonist, TRPV1 potentiator, CtBP-E1A blk, PINK1 expr mod, Sfp inh, Six1-Eya2 inh, D2 potentiator
CCc1nc(NCC2CCCO2)c(C#N)c2c1COC(C)(C)C2 (stereo not given) is listed as -1.6, -3, -3, 0.0%, 15%, -1, -3
COc1ccc(CNCc2ccc(C(F)(F)F)cc2)cc1OC is listed as -3.3, -1, -10, -1.1%, -4%, 1, -28
COC(=O)/C(=N\Nc1ccccc1)Sc1nnc(-c2ccc(OC)cc2)n1C is listed as 0.2, 17, -4, -0.2%, -14%, 7, -2
